High-throughput results as filed in PubChem BioAssay.
RanGTP-Imp inh: inhibitors of RanGTP-importin-beta interaction, primary screen, biochemical, FRET, CFP-Ran, YFP-importin-beta, homogeneous. cell-free CFP-Ran/YFP-importin-beta FRET ratio. actives 1.1% (n = 300,000). inhibition, % (no concentration beside the values);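 active means most replicates above 15%; inconclusive means exactly half above 15%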;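 further: 0% = DMSO wells and 100% = Ran loaded with GDP instead of GTP; wells of about 40 µL received 100 nL stock; the first replicate is given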
A1 inh: caspase 3/7 activation in MEF A1-2A-BIM cells, primary screen, A1 inhibitor project, cell-based, luminescence, HTS | AID 2462, 2010 | caspase activation, % (no concentration beside the values) | Caspase-Glo 3/7 luminescence, 3 h; percent of clofoctol response, vehicle zero | actives 0.066% (n = 330,000);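 active means over half of replicate activation scores above 10%, or exactly half above 10 with the replicate mean above 10; inconclusive means replicate mean below 10 yet half the replicates above 10; inactive means over half of replicates below 10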;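 further: wells of about 30 µL received 50 nL stock; many hits fall short of the cut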
Beta apoptosis: inhibitors of cytokine-induced beta cell apoptosis, primary screen, luminescence. INS-1E cytokine-induced death, ATP luminescence, 48 h; percent of positive-control rescue, neutral wells zero. protection from apoptosis, % (no concentration beside the values). actives 0.8% (n = 300,000). AID 435005, 2010;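 active means all replicates at 75% or more, or half of them and the mean; inconclusive means half reach 75% but not the mean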;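 further: 0% = cytokine-treated negative control wells and 100% = positive control rescue; higher means more ATP so stronger rescue from cytokine killing; wells of about 40 µL received 100 nL stock; the first replicate is given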
Calb FLC: C. albicans growth inhibition with fluconazole, primary screen, CaCi-2 strain, Alamar Blue fluorescence | C. albicans CaCi-2 (fluconazole-resistant clinical isolate) + fluconazole, 48 h | actives 0.57% (n = 300,000) | growth inhibition, % (test concentration not listed);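 active means most replicates above 75%; inconclusive means exactly half above 75%; inactive means most below 75%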;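 further: all wells also contain fluconazole at 8 µg/ml as a sub-toxic cotreatment; 0% = median of DMSO wells and 100% = median of geldanamycin control wells; wells of about 8 µL received 7.5 nL stock; the first replicate is given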
Ecoli rRNA inh: reduced GFP signal of wild-type E. coli, primary screen, bacterial rRNA inhibitor project, GFP/RFP fluorescence, OD600, single point; E. coli WT GFP vs humanized-ribosome RFP mutants, 24 h; hits give low values; DMSO median 0, no signal -100; actives 1.6% (n = 350,000); GFP signal change (wild-type ribosome), % (concentration not given with the values); AID 720706, 2013;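 active means significant combined selectivity score with lowered wild-type GFP, culture density cut under 30%, mutant RFP and density less affected; inactive means any of these conditions unmet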; further: one replicate is shown; some compounds called inactive have numbers as strong as hits
AF4-AF9 inh: inhibitors of AF4 peptide binding to AF9, primary screen, biochemical, AlphaScreen, biotin-AF4 peptide, FLAG-AF9, single point | Protein AF-9 (Homo sapiens), P42568 | inhibition, % at 10 µM | actives 0.47% (n = 350,000) | AID 651704, 2012;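 active means every replicate reaching a set inhibition limit, whatever the replicate mean, cut at about 25% in these data; inconclusive means mean inhibition reaches that limit but some replicates miss it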;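 further: 0% = plate neutral control median and 100% = total signal loss; the record names both 10 and 1 µM as test concentration; the first replicate is given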
Target sequence (P42568 whole entry, looked up): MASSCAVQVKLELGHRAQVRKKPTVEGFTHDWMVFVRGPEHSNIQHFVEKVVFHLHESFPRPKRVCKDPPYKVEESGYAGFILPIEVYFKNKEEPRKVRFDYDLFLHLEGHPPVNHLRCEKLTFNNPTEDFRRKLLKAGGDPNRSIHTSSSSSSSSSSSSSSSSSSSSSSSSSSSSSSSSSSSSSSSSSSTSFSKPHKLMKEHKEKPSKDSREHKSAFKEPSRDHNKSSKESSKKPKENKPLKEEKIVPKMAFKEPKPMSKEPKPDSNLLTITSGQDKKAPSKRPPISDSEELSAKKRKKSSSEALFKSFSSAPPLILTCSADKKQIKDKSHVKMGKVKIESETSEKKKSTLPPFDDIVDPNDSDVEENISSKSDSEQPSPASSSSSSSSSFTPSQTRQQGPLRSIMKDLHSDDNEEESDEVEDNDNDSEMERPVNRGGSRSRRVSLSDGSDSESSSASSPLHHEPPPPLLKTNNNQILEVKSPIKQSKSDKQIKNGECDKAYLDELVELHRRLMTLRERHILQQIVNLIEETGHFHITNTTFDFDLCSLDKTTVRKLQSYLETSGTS
T cruzi repl: inhibitors of intracellular T. cruzi growth, primary screen, luminescence, NIH3T3 host cells; AID 1885, 2009; T. cruzi beta-gal in NIH3T3, 90 h; inhibition, % (no concentration beside the values); actives 1.4% (n = 300,000);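 active means mean inhibition across valid replicates above about 55%, limit read from the data; inconclusive means mean below that limit but half or more replicates reach it; inactive means mean below it, under half of replicates reach it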;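 further: signal also drops with host cell toxicity which is not excluded here; 0% = plate median of DMSO wells and 100% = zero luminescence signal; higher percent means less beta-gal luminescence so fewer parasites; stock transfer was 50 nL into about 50 µL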
Vif TR-FRET: inhibitors of Vif binding to APOBEC3G peptide, primary screen, biochemical, TR-FRET, GST-Vif 1-94, biotin-A3G peptide, dose response retest (AID 1117319); Virion infectivity factor (Human immunodeficiency virus type 1 group M subtype B (isolate …; TR-FRET GST-Vif / biotin-A3G peptide binding; higher % means a stronger effect; test concentration not given here; strong numbers were not always called active; one-dose inhibition, %; IC50 in µM for titrated hits; actives 0.57% (n = 260,000);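 active means above the screen mean plus three standard deviations and confirmed in dose response; inconclusive means results disagree or hit not tested in dose response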;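 further: Vif residues 1-94 fused to GST binding biotinylated APOBEC3G peptide 110-148; 0% = full assay without inhibitor and 100% = GST in place of GST-Vif; retest series ran down from 100 µM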
Ecoli rRNA inh OD600: recorded beside Ecoli rRNA inh, whose call it bears; OD600 change, %; measured here: OD600 growth;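 optical density of the mix in the first replicate; 0 = DMSO median and -100 = no signal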
Ecoli rRNA inh RFP: second read-out of Ecoli rRNA inh, no call of its own (marks repeat the call); RFP signal change, %; measured here: RFP humanized mutant strains;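 first replicate; 0 = DMSO median and -100 = no signal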
* marks the source's active call; other numbers are inactive results; ? = inconclusive; . = no result given. This is a subset; count on the stated rates, not on these rows.

Each structure is followed by: RanGTP-Imp inh, A1 inh, Beta apoptosis, Calb FLC, Ecoli rRNA inh, Ecoli rRNA inh OD600, Ecoli rRNA inh RFP, AF4-AF9 inh, T cruzi repl, Vif TR-FRET
> Fc1ccccc1-c1nc(-c2ccncc2)no1
    -3.9, -8.0, -2, -6, 0, -7, -0.6, -2.4, 15, 27%
> Cc1cccc(C(=O)Nc2ccc(C(=O)/C=C/c3cccs3)cc2)c1
    -1.9, -0.1, 2, -11, ., ., ., ., 16, 9%
> Cc1c(C(=O)OCC(=O)Nc2ccc(C(=O)N(C)C)cc2)oc2ccccc12
    3.0, 0.5, -2, -3, 2, -5, -1.6, -0.8, 0, -9%
> COc1ccc(CN2CCC(=O)N([C@H](CO)c3ccccc3)CC2)cc1
    -1.1, -0.1, -1, -23, 6, 16, 2.3, 1.3, -15, .
> COc1ccccc1C(=O)COC(=O)CCNS(=O)(=O)c1ccc(C)c(C)c1
    -0.9, 1.0, 2, -1, 0, 2, 2.4, 1.0, -5, 8%
> O=C(CC1NC(=O)NC1=O)NC1(C(=O)NC2CCCCC2)CCCCC1 (stereo unspecified)
    -0.5, 0.1, -6, -3, ., ., ., ., -16, 20%
> Fc1ccccc1-c1csc(=Nc2cccnc2)n1CCCn1ccnc1
    3.2, 0.3, ., -5, ., ., ., 13, 48, -11%
> CC(N=Cc1ccccc1O)c1ccccc1 (stereo unspecified)
    -2.3, -0.1, -9, -4, ., ., ., ., 7, ?
> COCCCNC(=O)C1CCCN(S(=O)(=O)c2cccc3nsnc23)C1 (stereo unspecified)
    2.6, -0.8, 0, -6, 7, 13, -1.2, 1.0, -9, .
> CCOC(=O)N1CCN(C(=O)Cc2ccccc2OC)CC1
    -0.9, 0.8, -3, 4, 4, 5, -1.7, 1.5, 5, .
> COc1ccc(C(NC(=O)N2CC(C)OC(C)C2)C(Cl)(Cl)Cl)cc1F (stereo unspecified)
    -0.2, 0.6, 7, -6, ., ., ., ., -18, -4%
> O=S(=O)(c1ccccc1)c1nc(Nc2ccccc2N2CCOCC2)sc1Cl
    -0.9, -0.6, ., 1, ., ., ., ., 29, 2%
> CC1CC(=O)Nc2ccccc2N1S(=O)(=O)c1ccccc1 (stereo unspecified)
    6.1, 1.3, 1, -4, ., ., ., ., -15, 5%
> Cc1ccccc1-n1nc2c(c1NC(=O)c1ccc(S(=O)(=O)N(C)C)cc1)CSC2
    4.6, 0.5, 7, 6, 6, 20, -3.4, -65, -8, 4%
> CC(=O)Nc1cccc(/C(C)=N/NC(=O)c2ccc(CN3CCOCC3)cc2)c1
    -6.3, -0.5, 0, 21, 8, 5, -6.4, -1.5, -15, .
> O=S(=O)(NC1CCCC1)c1ccc(S(=O)(=O)N2CCN(c3ccccc3)CC2)cc1
    -0.5, 0.8, ., -13, ., ., ., ., 4, ?
> COC(=O)C1=C(C)N(Cc2ccccc2)C(=O)N[C@H]1CCc1ccccc1
    ?, -0.6, 1, -9, 6, 0, -0.5, ., -15, .
> O=C(NCC(=O)N(CCc1ccccc1)C(C(=O)NC1CCCCC1)c1ccncc1)c1ccco1 (stereo unspecified)
    3.5, 0.0, ., -5, ., ., ., ., 33, 3%
> Cc1ccc(S(=O)(=O)NNC(=O)C2CC=CCC2C(=O)O)cc1 (stereo unspecified)
    ?, -0.2, -1, 2, 18, 19, 1.2, 0.5, -6, 7%
> O=C1N(Cc2cccnc2)C[C@@H]2C[C@@H](c3ccc4nsnc4c3)N3CCC[C@@]123
    ?, 1.1, -13, 18, 15, 6, -0.2, 17, -11, >100µM*

Limited to AF4-AF9 inh, Vif TR-FRET and Beta apoptosis, for two of the compounds above:
canonical_smiles	AF4-AF9 inh	Vif TR-FRET	Beta apoptosis
Cc1ccc(S(=O)(=O)NNC(=O)C2CC=CCC2C(=O)O)cc1 (stereo unspecified)	0.5	7%	-1
O=C1N(Cc2cccnc2)C[C@@H]2C[C@@H](c3ccc4nsnc4c3)N3CCC[C@@]123	17	>100µM*	-13

The results go on:
Each structure is followed by: RanGTP-Imp inh, A1 inh, Beta apoptosis, Calb FLC, Ecoli rRNA inh, Ecoli rRNA inh OD600, Ecoli rRNA inh RFP, AF4-AF9 inh, T cruzi repl, Vif TR-FRET
> Cc1ccc(NS(=O)(=O)c2ccc(CCC(=O)NCCCOC(C)C)cc2)cc1
    ?, 0.6, -5, 31, ., ., ., ., -2, 1%
> C=CCn1c(C(C)NC(=O)c2ccccc2C)n[nH]c1=S (stereo unspecified)
    2.4, 0.2, -4, 2, 12, 21, 5.9, -6.4, -15, .
> C=CCN(Cc1nc(-c2ccc(OC)cc2)no1)C(=O)c1ccc2c(c1)OCO2
    1.4, 0.3, ., -20, -11, -18, 1.1, -2.0, 6, .
> Fc1ccc(NC(=S)N2CCCC2)cc1
    0.4, -0.5, 1, 1, ., ., ., ., -10, 1%
> NC(=O)c1cc([N+](=O)[O-])ccc1NCc1ccc(O)cc1
    ., -0.6, -4, ., 12, 22, 24, -14, ., .
> CCN1C(=O)[C@H]2[C@@H](c3ccc(-c4ccc(F)cc4)c(OC)c3)N3CCCC[C@@]3(C(=O)OC)[C@H]2C1=O
    ., -0.2, -3, ., 15, 1, -6.8, 2.1, ., .
> Cc1ccc(-n2c(=O)c3sccc3n(Cc3cc(=O)n4cc(Cl)ccc4n3)c2=O)cc1F
    1.7, 0.5, -8, -5, ., ., ., ., 27, 0%
> Cc1ccc(C)c(C(=O)N(C)CC(=O)Nc2ccccc2C(F)(F)F)c1
    -0.5, 0.8, -9, -5, 6, 11, 2.1, 0.3, -9, -4%
> COC(=O)c1sc2nc[nH]c(=O)c2c1C
    4.9, -0.9, -2, -4, ., ., ., ., -15, 21%
> CCC(Oc1ccc(C)c(C)c1)C(=O)N1CCCN(C)CC1 (stereo unspecified)
    -1.1, 0.1, ., 0, 13, 5, -1.0, -0.4, -9, 2%
> O=C(O)/C(=C\c1ccccc1Cl)c1ccc(S(=O)(=O)N2CCCCC2)s1
    ?, -0.3, -9, ?, -20, -20, -4.2, -0.7, -1, 5%
> CCCCN(C(=O)/C=C/c1ccco1)c1c(N)n(Cc2ccccc2)c(=O)[nH]c1=O
    ., -0.3, -3, 113*, 6, -13, 8.7, -1.7, ., -6%
> CCC(COC(C)=O)Nc1nc2c([nH]1)c(=O)n(C)c(=O)n2C (stereo unspecified)
    4.4, -0.2, -2, 1, 28, 9, 0.7, ., -7, ?
> COc1ccc(C2=NCC(CSc3nnc(-c4ccc5c(c4)OCO5)o3)S2)cc1 (stereo unspecified)
    -4.4, -0.8, -2, 16, ., ., ., ., 57*, -1%
> O=C(NNC(=S)NCCCN1CCOCC1)c1ccncc1
    -2.6, 0.3, 3, 2, 9, 9, -4.5, -1.5, -3, 6%
> O=C(c1ccc(S(=O)(=O)N2CCOCC2)cc1)N1CCN(c2cccc(Cl)c2)CC1
    7.0, 1.1, 8, 8, -6, -21, 4.2, ., -10, >100µM*
> Cc1noc(C)c1C(=O)OCC(=O)Nc1ccccc1C(=O)NC(C)c1ccccc1 (stereo unspecified)
    -2.9, -0.2, 6, -9, ., ., ., ., -3, -5%
> O=C(N/N=C/c1ccc(OC(=O)c2ccco2)cc1)c1ccccn1
    5.5, 0.8, ., 42, 16, 24, 1.8, -1.6, -7, -5%
> COc1ccccc1C1C(C(=O)c2ccco2)=C(O)C(=O)N1c1cc(C)on1 (stereo unspecified)
    ., 0.2, 0, ., 6, -6, 3.9, -4.8, -1, .
> CCOc1ccc(NC(=O)CSCc2cnn(-c3ccccc3)c2-n2cccc2)cc1
    1.9, -0.4, 0, 12, ., ., ., ., 20, -1%
> O=C(CCc1nnc(CCCCc2ccccc2)o1)NC1CCCC1
    -0.5, 0.4, -5, -9, 5, 7, -0.2, -2.1, 2, 15%
> CCN(CC)c1ccc(/C=C(\C#N)C(N)=S)cc1
    3.2, -0.6, 0, 1, -23*, -6.7*, 8.3*, 11, -7, 25%
> COC(=O)c1ccc(CN2CCCC(CO)(Cc3ccc(F)cc3F)C2)cc1 (stereo unspecified)
    -1.6, -0.6, -1, 12, -35, -44, -4.1, -5.0, 27, 1%
> COc1cc(/C=C2\SC(c3ccc(C)cc3)=NC2=O)ccc1O
    7.4, 0.6, -5, -1, 1, -2, 24, 13, -12, ?
> O=C(/C=C1\SC(=O)N(CC(=O)Nc2ccc(Cl)cc2)C1=O)Nc1ccc(F)cc1
    2.6, -0.4, ., 15, ., ., ., 0.3, -14, 2%
> CCCc1nc(NCc2ccc3c(c2)OCO3)c2nnn(Cc3ccccc3Cl)c2n1
    ?, 0.0, 18, -3, ., ., ., ., 12, 18%
> CN(C)C(=O)c1cc2cc([N+](=O)[O-])ccc2s1
    -1.9, 0.0, 2, -11, ., ., ., ., -4, 6%
> CON/C=C(\C=Nc1ccc(Cl)cc1Cl)c1ncc(C(F)(F)F)cc1Cl
    ?, 0.1, -3, 94*, ., ., ., ., -10, 14%
> O=C(COC(=O)CSc1ccc(F)cc1)NCC1CCCCC1
    ?, 0.6, -6, 3, 0, 9, 1.5, -0.2, 2, 1%
> O=C1N=C2SCCN2/C1=C\c1c(Cl)cccc1Cl
    -2.6, 0.6, 11, 6, ., ., ., ., 6, -3%
> O=C(CSc1nnc(Cn2c(=O)sc3ccccc32)n1-c1ccccc1)N1CCOCC1
    ., 0.3, ., ., 4, -5, -7.5, 3.4, ., 18%
> Cc1ccc(Nc2[nH]c(=O)c3ccccc3c2C(=O)c2ccccc2)cc1
    27*, -0.1, 8, -7, ., ., ., ., -9, .
> CCOC(=O)CSc1nnnn1-c1cc(OC)c(Cl)cc1OC
    -4.5, 0.1, 0, 0, ., ., ., ., 2, 26%
> COc1cc(C2C(C(=O)c3ccc(C)o3)=C(O)C(=O)N2Cc2cccnc2)ccc1O (stereo unspecified)
    -1.7, -0.1, -6, -8, ., ., ., -4.1, -5, 7%
> CC(=O)NCc1ccc(S(=O)(=O)N/N=C/c2ccc(Br)cc2)cc1
    2.0, -0.4, -4, 5, 2, -2, 0.7, -2.6, -15, -3%
> O=C(Nc1cccc(C(F)(F)F)c1)c1cc2c(=O)c3ccccc3oc2nc1C(F)(F)F
    -0.5, -0.8, 20, -12, ., ., ., ., ?, -3%
